From PubChem
gsp antagonist – antagonizes gsp, the McCune-Albright syndrome mutation | gsp-mutant cells, cAMP HTRF, 30 min; control for the full effect not named in the record | Potency, µM (titrated, usually from 76.9 µM), for the others: at the highest dose activity change, negative = inhibition, actives largely listed as inhibitors | 340,000 tested, 0.4% active; active = falling curve of any shape with a large fitted effect; inconclusive = falling curve, mostly with a smaller effect; inactive = flat or rising curve; cell line not stated here;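 also: intracellular cAMP measured with PDE inhibitor Ro 20-1724 present during compound exposure; potency is read from the fitted curve at half-maximal effect; % is scaled to controls: 0 for no effect and ±100 for the full control effect; nearly all actives have a fitted effect of over 65% in size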
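Cells in G418 medium, seeded 16-24 h, 37C; buffer exchange to DPBS + 1 mM CaCl2, 0.5 mM MgCl2, 0.05% BSA; cpds in DMSO + […] (300 uM stock), 30 min 37C; HTRF cAMP detection.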
gsp agonist – agonists of gsp mutant (McCune-Albright syndrome); gsp mutant cells, cAMP HTRF, 30 min; control for the full effect not named in the record; Potency, µM (titrated, usually from 76.9 µM), for inactives: at the top dose activation (cAMP increase), usual class: activators; 340,000 tested, 0.13% active; AID 624287; active = well fitted activation curve with a large enough effect; inconclusive = small, poorly fitted or top-dose-only effect, or another doubt; inactive = no such curve, though single readings can be large or run the other way; cell line not stated here;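 also: phosphodiesterase inhibitor Ro 20-1724 added with compounds to block cAMP breakdown; potency is read from the fitted curve at half-maximal effect; nearly all actives have a fitted effect of over 60% in size; about a fifth of the inactives were tested at one dose only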
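Cells in DMEM/10% FBS with G418 were pretreated with compounds in DMSO plus […] (300 uM stock) for 30 min at 37C. cAMP was measured by HTRF (cAMP-d2 plus anti-cAMP antibody-K) after 30 min at room temperature.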
Six1-Eya2 inh – inhibitors of human Six1/Eya2 interaction; 360,000 tested, 0.56% active; AlphaScreen GST-Six1/His-Eya2 binding, biochemical; stronger effect = lower value; control for the full effect not named in the record; AID 651725; Q15475+O00167; activity change, % (test concentration not listed); in the data active = activity change below about -65%; inconclusive = about -30% to -65%; inactive = above about -30%; also: % is scaled to controls: 0 for no effect and ±100 for the full control effect; compound concentration not given in the record
Target sequence (O00167 whole entry, looked up): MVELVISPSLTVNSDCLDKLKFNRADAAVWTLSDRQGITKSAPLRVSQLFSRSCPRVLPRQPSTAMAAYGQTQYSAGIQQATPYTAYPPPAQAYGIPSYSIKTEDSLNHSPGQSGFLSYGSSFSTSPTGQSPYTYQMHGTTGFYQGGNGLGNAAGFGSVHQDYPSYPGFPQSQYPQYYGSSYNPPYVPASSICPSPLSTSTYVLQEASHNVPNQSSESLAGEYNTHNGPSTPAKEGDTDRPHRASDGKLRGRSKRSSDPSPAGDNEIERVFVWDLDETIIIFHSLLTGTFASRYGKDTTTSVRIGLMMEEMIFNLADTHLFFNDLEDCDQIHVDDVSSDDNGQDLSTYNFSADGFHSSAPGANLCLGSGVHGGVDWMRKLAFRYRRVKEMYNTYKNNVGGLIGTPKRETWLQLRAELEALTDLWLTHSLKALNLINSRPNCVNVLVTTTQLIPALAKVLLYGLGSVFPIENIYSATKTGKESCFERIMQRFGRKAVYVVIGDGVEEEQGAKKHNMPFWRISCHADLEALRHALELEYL
Target sequence (Q15475 whole entry, looked up): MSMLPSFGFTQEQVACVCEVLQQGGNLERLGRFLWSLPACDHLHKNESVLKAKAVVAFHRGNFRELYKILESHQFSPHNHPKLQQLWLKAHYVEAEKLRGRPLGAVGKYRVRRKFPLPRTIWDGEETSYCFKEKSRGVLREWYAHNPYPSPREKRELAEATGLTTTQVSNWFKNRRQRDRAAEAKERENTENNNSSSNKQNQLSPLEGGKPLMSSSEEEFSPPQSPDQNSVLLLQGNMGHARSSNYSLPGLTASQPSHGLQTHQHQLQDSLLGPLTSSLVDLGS
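AlphaScreen luminescence read after one hour at 37 °C in darkness. Pin-transferred compounds met GST-Six1 and His-Eya2 protein (5X stock 250 nM/500 nM) plus glutathione donor and Ni-chelate acceptor beads (5X, 50 ug/mL).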
D2 ag – activates the human D2 dopamine receptor; activation, % (no concentration beside the values); AID 624465; DiscoveRx PathHunter D2 beta-arrestin, luminescence, 90 min; 100% = 57 uM dopamine signal; P14416; 360,000 tested, 0.084% active; in the data active = activation above about 40%; inconclusive = about 15% to 40%; inactive = below about 15%; also: compound concentration not given in the record; the text of the record calls up to 30% inactive
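Agonist mode: compounds alone added to overnight-plated D2 PathHunter cells for 90 min at 37 C, with 57 uM final dopamine (EC100) defining full response. Beta-arrestin recruitment detected by chemiluminescent reagent, read after 1 h at ambient temperature.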
D2 potentiator – positive allosteric modulators of human D2 dopamine receptor | P14416 | DiscoveRx D2 beta-arrestin cells, luminescence, 90 min; 100% = 57 uM dopamine signal | potentiation, % (test concentration not listed) | 360,000 tested, 0.23% active | AID 624464; active = potentiation of 50% or more; inconclusive = 30% to 50%; inactive = 30% or less;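 also: compound concentration not given in the record; tested on top of an EC20 dose of dopamine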
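PathHunter beta-arrestin assay in DiscoveRx D2 cells. Compounds were added with an EC20 of dopamine (50 nM final) for 90 min at 37 deg C. Luminescence was read 1 h after detection reagent, with 57 uM dopamine as the EC100 control.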
CtBP-E1A blk – blocks the CtBP interaction with E1A. activity change, % (test concentration not listed). AID 651724. AlphaScreen GST-E1A/His-CtBP binding, 1536-well; stronger effect = lower value; control for the full effect not named in the record. 340,000 tested, 0.49% active; in the data active means activity change below about -65%; inconclusive means about -30% to -65%; inactive means above about -30%; also: % is scaled to controls: 0 for no effect and ±100 for the full control effect; compound concentration not given in the record
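Steps: dispense buffer (Tris pH 8.0, NaCl 300 mM, TCEP 1 mM, BSA, Tween 20); add 5X protein mix (GST-E1A, His-CtBP, 125 nM each); pin 23 nL compound; 2 h at 37 °C, dark; add 5X beads (50 ug/mL); 1 h; read.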
Numbers without * were called inactive; u = inconclusive; x = no result given; [ ] = another dose, or the depositor's remark. The order is random. Share with any hit: about 1.4%.

SMILES	gsp antagonist	gsp agonist	Six1-Eya2 inh	D2 ag	D2 potentiator	CtBP-E1A blk
COC(=O)[C@H]1C[C@H](OC(=O)NC2CC2)[C@@]2(O)CN(S(=O)(=O)c3ccc(C)cc3)CC2[C@H]1C(=O)OC (stereo partly drawn)	x	u	1	-2.5	8	-21
N#CC(=Cc1ccncc1)c1ccccc1	-3%	25%	5	0.3	-15	-1
Oc1ccc(/C=N/NC(=S)NCc2ccco2)cc1	-2%	4%	-6	-2.3	5	-5
O=C(c1ccc(F)cc1)c1ccc(OCC(=O)N2CCOCC2)cc1	-1%	-118%	7	1.3	0	9
Fc1cc(F)nc(NCc2ccccc2)n1	9%	15%	5	-3.4	-10	7
COc1ccc(C(=O)COC(=O)c2sc(C)nc2C)cc1F	-4%	-17%	-5	1.4	-15	6
CCC(=NC(CC)CO)C1=C(O)CC(C)(C)CC1=O (stereo not drawn)	12%	-16%	-3	-1.4	-1	-28
COc1cc(C(=O)NCC(=O)OCc2cc(=O)oc3c(C)c(C)ccc23)cc(OC)c1OC	x	4%[15.4 µM]	-2	2.0	-23	11
CCN(CC)CCN(C(=O)c1cc2ccccc2cc1OC)c1nc2ccc(OC)cc2s1	-3%	0%	u	-0.6	-15	x
CC(=O)Nc1cccc(-n2nnc(SCC(=O)Nc3ccc(F)c(Cl)c3)n2)c1	-11%	0%[15.4 µM]	-4	-1.1	-6	-3
O=C(Nc1ccccc1Cl)c1ccc2c(=O)n3c(nc2c1)CCC3	-15%	-11%	2	-6.1	3	0
COCCCn1c(SCC(=O)Nc2ccccc2)nnc1-c1ccncc1	7%	-21%	1	-0.3	u	5
CC(=O)C1=C(c2ccccc2)OC(N)=C(C#N)C1c1ccccc1C (stereo not drawn)	u	-45%[inhibitor]	0	-3.6	-14	10
CCC(C)NC(=O)N1c2ccccc2Sc2ccccc21 (stereo not drawn)	-7%	5%	-10	4.1	-11	x
c1ccc(NC2=NCCN2CCCC2CCCCC2)cc1	-6%	x	0	-5.3	-19	0
O=C(O)CC(NC(=O)C(c1ccccc1)c1ccccc1)c1cccc([N+](=O)[O-])c1 (stereo not drawn)	-8%	-19%	1	-5.2	-5	-3
COc1ccccc1NC(=O)c1ccc(SCC(=O)NCc2ccccc2Cl)c([N+](=O)[O-])c1	-11%	7%[15.4 µM]	-4	2.7	-23	12
CCOc1ccc(S(=O)(=O)NCCC(=O)N2CCN(c3ncccn3)CC2)cc1	3%	2%	2	-2.7	-8	-6
COc1ccc(N(C(=O)Cn2nnc3ccccc32)C(C(=O)NCc2ccco2)c2ccc(C)o2)cc1 (stereo not drawn)	-9%	-1%	-1	-3.6	-3	-13
Cc1noc(C(=O)Nc2cccnc2Cl)c1Cl	8%	-28%[15.4 µM]	-4	4.9	3	4
O=C(OCC(=O)N1CCOCC1)c1ccc2ccccc2c1O	9%	2%	-1	-2.5	-11	-5
C/C(=N/NC(=O)C(C)n1nc(C)c([N+](=O)[O-])c1C)c1ccc(OCC(N)=O)cc1 (stereo not drawn)	6%	-18%	-2	-1.1	-3	1
COc1ccc(N(C)C(=O)c2cc3c(Cl)nc4ccccc4c3s2)cc1	-2%	-2%[15.4 µM]	-10	-0.9	-8	1
Cc1ccc(-c2nc3ccc(C)cn3c2Cc2ccccc2C(F)(F)F)cc1	x	x	-8	-6.2	-7	-11
CCn1cc(C2=NOC(C(=O)Nc3ccc4c(c3)OCO4)C2)c(C)n1 (stereo not drawn)	-14%	17%	-3	0.3	-15	1
(listing goes on)
SMILES	gsp antagonist	gsp agonist	Six1-Eya2 inh	D2 ag	D2 potentiator	CtBP-E1A blk
Cc1ccc(OC(=O)CN2C(=O)c3ccccc3C2=O)cc1C	-8%	2%	11	0.5	3	9
CCc1ccc(N(CC(=O)NC(C)(C)C)C(=O)CCC(=O)Nc2ccccn2)cc1	0%	u	-1	-5.1	-4	7
CCC1CCCCN1C(=O)CCC(=O)Nc1nnc(C(F)(F)F)s1 (stereo not drawn)	-5%	u	7	-1.2	-7	-4
CCN(CC)c1ccc(/C=N/Nc2nc3ccccc3[nH]2)cc1	-18%	11%	-22	9.8	-8	x
COC(=O)c1ccc(CNC(=O)N2CCN(S(=O)(=O)c3ccc(C)cc3)CC2)cc1	-10%	-7%	4	-2.9	-5	3
COc1cc(C2c3cc4c(cc3C(O)C3COC(=O)C23)OCO4)cc(OC)c1OC (stereo not drawn)	16%	9%	-5	2.8	-4	5
CCn1ncc(Br)c1C(=O)Nc1cc([N+](=O)[O-])ccc1C	20%	-18%	0	-3.9	-11	-2
CN1CCN(S(=O)(=O)c2ccc(NC(=O)C3CCCO3)cc2)CC1 (stereo not drawn)	4%	13%	1	-0.7	-5	5
O=C(COc1cccc2cccnc12)Nc1cccc(S(=O)(=O)N2CCCC2)c1	-26%	u	-19	9.9	6	-25
COc1ccc(Cn2cc(CN3CCOCC3)nn2)cc1	x	x	2	-4.3	-4	3
CC(=O)NS(=O)(=O)c1cccnc1Nc1ccc(Cl)c(Cl)c1	-13%	u	4	-1.8	12	-6
CCc1ccc(C(C(=O)NC2CCCC2)N(Cc2cccnc2)C(=O)c2csnn2)cc1 (stereo not drawn)	-3%	u	-1	1.9	-7	-5
CCN(CC(=O)Nc1ccc(NC(C)=O)cc1)C(=O)/C=C/c1cn(-c2ccccc2)nc1-c1cccs1	-14%	-2%	-7	-2.9	-8	0
COc1cc(-c2nc3n(n2)C(c2ccc(F)cc2)C2=C(CCCC2=O)N3)cc(OC)c1OC (stereo not drawn)	14%	17%	-13	0.7	-9	-14
O=C(NCc1cccnc1)C1COc2ccccc2O1 (stereo not drawn)	2%	-9%[15.4 µM]	8	-5.5	-11	5
Cc1ccc(S(=O)(=O)N2Cc3ccccc3CC2C(=O)Nn2cnnc2)cc1 (stereo not drawn)	-19%	-14%	1	0.5	-10	0
COC(=O)C1=CN(Cc2ccc(OC)c(OC)c2)C=C(C(=O)OC)C1c1cccc(OC)c1OC	8%	20%[15.4 µM]	4	-0.4	-4	-1
Cc1cccc2cc(CNCC3CCCO3)c(Cl)nc12 (stereo not drawn)	x	-2%[15.4 µM]	-1	8.4	-6	28
CN(C)c1ccc(/C=N/O)cc1	-23%	-20%[15.4 µM]	8	-3.9	1	-5
C=CCn1c(NC(=O)c2ccccc2)nc2ccccc21	-9%	-56%[inhibitor]	3	-3.6	-4	-2
O=C(CSc1nc2ncc(Cl)cc2[nH]1)NCCc1ccc(F)cc1	-9%	21%	1	-5.5	-48	x
CCOC(=O)c1c(CN2CCCCC2)oc2ccc(O)cc12	-3%[15.4 µM]	0%	-12	-4.3	-20	-10
N/C(=N\OC(=O)C(c1ccccc1)c1ccccc1)c1cccnc1	-28%	3%	6	3.4	22	11
O=C(NCCc1ccc(Cl)cc1)c1ccc(CS(=O)Cc2ccccc2Cl)o1 (stereo not drawn)	-17%	17%	3	-2.3	1	2
Cc1cc2cc(CNC(=O)c3ccc(S(=O)(=O)N4CCCC4)cc3)ccc2n1C	-7%	-35%[inhibitor]	-6	-2.5	-5	-2

Structures listed so far containing a furan ring, fused or not (4):
SMILES	gsp antagonist	gsp agonist	Six1-Eya2 inh	D2 ag	D2 potentiator	CtBP-E1A blk
Oc1ccc(/C=N/NC(=S)NCc2ccco2)cc1	-2%	4%	-6	-2.3	5	-5
COc1ccc(N(C(=O)Cn2nnc3ccccc32)C(C(=O)NCc2ccco2)c2ccc(C)o2)cc1 (stereo not drawn)	-9%	-1%	-1	-3.6	-3	-13
CCOC(=O)c1c(CN2CCCCC2)oc2ccc(O)cc12	-3%[15.4 µM]	0%	-12	-4.3	-20	-10
O=C(NCCc1ccc(Cl)cc1)c1ccc(CS(=O)Cc2ccccc2Cl)o1 (stereo not drawn)	-17%	17%	3	-2.3	1	2

Other compounds
SMILES	gsp antagonist	gsp agonist	Six1-Eya2 inh	D2 ag	D2 potentiator	CtBP-E1A blk
CC(C)NCc1c(O)c(Br)cc2oc3c(c12)CCCC3	-1%	-8%	0	-4.4	5	8
Clc1cccc(Cl)c1Cn1nnc(N2CCCC2)n1	-4%	18%[15.4 µM]	10	-2.6	-9	-7
CC(C)=CCCC1=CCC2C(=O)NNC(=O)C2C1 (stereo not drawn)	13%	-29%	1	-0.5	-5	2
Cc1ccc(S(=O)(=O)N2CCOCC2)cc1C(=O)N1CCOCC1	14%	-2%	4	-2.0	-3	0
CC(=O)c1cccc(NC(=O)c2ccc(Br)o2)c1	-13%	0%	0	-0.2	-14	2
CCN(CC)c1ccc(C(=O)OCC(=O)N(C(C)C)C(C)C)cc1	-2%	-16%[15.4 µM]	-1	-2.2	-10	0
Cn1cc(-c2csc(C(C)(O)c3cccc(F)c3)n2)cn1 (stereo not drawn)	x	x	0	-4.0	-6	5
c1nc(NCC2(N3CCOCC3)CCCCC2)c2ccsc2n1	3%	26%	-1	-1.2	-8	3
Cc1cccc(-n2c(SCc3cc(=O)n4ccsc4n3)nc3ccccc32)c1	-5%	u	-11	-0.6	11	-15
CC(=O)C1(C)C(=O)N(c2ccc(F)cc2)C(=O)N1c1ccc(F)cc1 (stereo not drawn)	1%	-34%[inhibitor]	10	0.0	-13	3
CCOc1cc2[nH]c(=S)n(CCN3CCC(C)CC3)c(=O)c2cc1OCC	3%	-9%	0	0.2	-35	1
CN(CCOc1cccc2ccccc12)Cc1ccccc1	1%	3%	5	u	0	10
O=C(NNC(=O)C12CC3CC(CC(C3)C1)C2)c1ccccc1O	18%	-20%	-7	-3.6	1	1
COc1cc(/C=N/NC(=O)CSc2n[nH]c(=O)[nH]c2=O)cc(OC)c1O	-5%	18%	-26	-2.4	-2	-27
Cc1ccc(/C=N/NC(=O)c2cccc3ccccc23)o1	-26%	1%[15.4 µM]	-5	-4.9	-15	3
Cc1ccc(S(=O)(=O)NCCc2nnc3ccc(NCCCOC(C)C)nn23)cc1	8%	-16%	-6	1.7	-7	x
O=S(=O)(/N=C(/c1ccccc1)N1CCCCC1)c1ccccc1	11%	-1%	11	-0.6	-8	-1
Nc1nc(CSc2ccccc2)nc(N2CCCCC2)n1	2%	-64%[inhibitor]	-12	2.1	1	-7
O=C(CSc1ccccc1)NCc1ccccc1	0%	5%[15.4 µM]	-5	2.5	-8	1
CCOC(=O)N/N=C(\C)c1ccc(Br)cc1	-3%	-4%	-1	-1.6	0	18
CC(CC(=O)O)n1nnc2ccccc21 (stereo not drawn)	11%	-27%[15.4 µM]	11	2.3	-5	4
Cc1ccc(-c2cc(C(F)(F)F)n3nc(C(=O)Nc4c(C)n(C)n(-c5ccccc5)c4=O)cc3n2)cc1	11%	5%	5	-3.7	-4	4
Cc1nc(-c2ccc(Cl)cc2)sc1C1(C)CC(c2cccnc2)=NO1 (stereo not drawn)	-7%	x	-3	-4.8	-7	-1
Nc1nc2ccc(Br)cc2s1	x	16%	30	0.2	-2	20
CCNC(=O)CN(c1ccc(C)cc1)S(=O)(=O)c1ccc(SC)cc1	1%	0%	0	-3.2	-19	-12
